Screens deposited in PubChem BioAssay by several laboratories.
PABP polyA inh = blocks human PABP binding to poly(A) RNA. P11940. fluorescence polarization. inhibition, % at 35 µM. hit rate 1% among 290,000;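 active = 50% or more with normal probe brightness, or confirmed in later tests; inconclusive = above 50% with abnormal brightness, or retests that disagree; inactive = below 50% or failed in later tests; about a fifth of its hits are not listed in these tables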;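 note: calls also rest on retests at 20 µM and on dose response follow-up; controls were probe without protein and protein plus probe with vehicle; some compounds called inactive have numbers as strong as hits; many hits fall short of the cut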
HIV Env fusion = HIV envelope-mediated fusion inhibition | AID 651610 | HeLa-JRFL Env/CEM21 cell fusion, luciferase | hit rate 1.1% among 360,000 | inhibition, % at 12.3 µM;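 active = mean replicate inhibition score of at least 50 and every replicate individually at or above 50; inconclusive = only one of the two criteria met; inactive = mean below 50 and not all replicates reaching 50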;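 note: 0% = plate neutral controls and 100% = maraviroc near 300 nM; one replicate is shown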
UUG fidelity = modulators of start codon recognition fidelity in yeast | S. cerevisiae UUG-firefly luciferase reporter, luminescence/redox ratio | activity score, % at 18.7 µM | hit rate 0.13% among 350,000;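 active = replicate mean at a twofold rise or more, about +100% in these data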;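 note: firefly luciferase made from a UUG start codon reports start codon fidelity; reporter light over untreated wells divided by growth signal over untreated wells; some hits fall short of that in this replicate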
Rce1 inh = blocks yeast Ras-converting enzyme. hit rate 0.27% among 290,000. Q03530. yeast membranes, quenched prenylated peptide cleavage fluorescence. calls only;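 active = fall in fluorescence gain of 50% or more versus controls, with final raw signal at or below 3038400; inconclusive = same 50% fall but final raw signal above 3038400; inactive = fall in fluorescence gain under 50%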;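 note: plate controls were neutral control wells for no effect and wells lacking membranes for full effect; tested at 10 µM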
Target sequence (Q03530 whole entry, looked up): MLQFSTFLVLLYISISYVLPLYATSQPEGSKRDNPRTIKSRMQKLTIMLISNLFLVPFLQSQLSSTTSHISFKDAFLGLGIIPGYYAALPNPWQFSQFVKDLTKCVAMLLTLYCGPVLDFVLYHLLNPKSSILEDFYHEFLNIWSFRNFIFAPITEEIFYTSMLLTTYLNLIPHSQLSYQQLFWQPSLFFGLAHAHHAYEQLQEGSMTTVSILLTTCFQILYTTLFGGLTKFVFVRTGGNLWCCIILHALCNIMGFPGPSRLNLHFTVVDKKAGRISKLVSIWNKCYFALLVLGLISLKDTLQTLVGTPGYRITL
MT1-MMP act inh = blocks activation of human MT1-MMP; HT1080 RFP-PRO-GFP cells, GFP/RFP ratio fluorescence, overnight; percent of plate control window, DMSO zero; GFP/RFP ratio change, % at 20 µM; hit rate 0.061% among 360,000; AID 651647;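 active = GFP/RFP ratio change of at least 30% with cell ATP level not reduced by more than half and red fluorescence within 50% of control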; note: strong numbers were not always called active
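Assay system: HT1080 cells carrying an RFP-PRO-GFP reporter | Dosing: Single dose of 20 µM compound, 1% DMSO final | Incubation: Cells overnight before dosing, compound overnight, 37 °C, 5% CO2 | Evaluation: GFP/RFP fluorescence ratio | Control set: DMSO and RFP-L50D-GFP cell wells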
CSC inhib = blocks cancer stem cells | cancer stem cell-like cells viability, luminescence | inhibition, % at 7.5 µM | hit rate 1.1% among 300,000 | AID 2717;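 active = mean at 75% or more and at least half the replicates too; inconclusive = mean and replicates disagree; tested in HMLE shEcad cells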;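 note: 0% = median of negative and 100% = median of positive control wells; the first replicate is given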
eIF4H FP inh = inhibitors of RNA binding by human eIF4H. Q15056. eIF4H fluorescence polarization binding assay. inhibition, % at 35 µM. hit rate 0.94% among 290,000. AID 2012;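 active = 50% or more with normal probe brightness, or confirmed in later tests; inconclusive = above 50% with abnormal brightness, or retests that disagree; inactive = below 50% or failed in later tests; about a fifth of its hits are not listed in these tables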;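 note: calls also rest on retests at 20 µM and on dose response follow-up; 0% = protein and probe with vehicle and 100% = probe without protein; strong numbers were not always called active; many hits fall short of the cut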
MT1-MMP act inh RFP = also measured in MT1-MMP act inh; calls as there; RFP signal change, %; measured here: RFP expression control read;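 0 = vehicle wells; hits needed this value within 50% of zero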
Numbers without * were called inactive; i = inactive; ? = inconclusive; · = no result given; & = joins results of further samples. Some of the compounds tested. The share of hits here may be higher or lower than overall.

SMILES | PABP polyA inh | HIV Env fusion | UUG fidelity | Rce1 inh | MT1-MMP act inh | MT1-MMP act inh RFP | CSC inhib | eIF4H FP inh
O=C1CCc2cc(S(=O)(=O)N3CCCC3C(=O)N3CCN(c4ccccc4)CC3)ccc2N1 (configuration not stated) | 9 | -16 | -20 | i | 3 | 6 | 10 | 2
CC(=O)Nc1nnc(-c2ccc(Cl)s2)o1 | -6 | 3 | -17 | i | -6 | -1 | 2 | -10
CCCOc1cccc(C(=O)Nc2ccccc2C(=O)N2CCN(C)CC2)c1 | -7 | 0 | -11 | i | -4 | 1 | -8 | 9
COC(=O)c1ccccc1OCC(=O)N1CCN(c2ccc(F)cc2)CC1 | -2 | 0 | 4 | i | 7 | 8 | -5 | 2
O=c1cc(-c2ccccc2O)nc(-c2ccccc2)[nH]1 | · | -5 | · | i | 1 | -4 | -9 | ·
O=C(CSc1cccc(C(F)(F)F)c1)Nc1ccc(Cl)cc1Cl | -10 | 21 | -12 | i | -6 | -4 | 5 | -7
O=C(C1=C[C@H](c2ccc(Br)cc2)C[C@H](OCCCCO)O1)N1CCOCC1 | -9 | 6 | -1 | i | 1 | -1 | -6 | -4
O=C(O)CCCCCNC(=O)CCn1cnc2ccccc2c1=O | -1 | 6 | -13 | i | 2 | 1 | -6 | -1
COc1ccc(CCN2CNc3c(c(=O)n(C)c(=O)n3C)C2)cc1 | 1 | -77 | -25 | i | 0 | 5 | 0 | -10
O=C(COC(=O)c1cccc(S(=O)(=O)NCc2ccccc2)c1)c1ccccc1 | -4 | -6 | -13 | i | 5 | -6 | 1 | 0
CC1CCC(N2CCN(c3ccc([N+](=O)[O-])cc3)CC2)CC1 (configuration not stated) | 16 | -20 | -34 | i | 4 | 6 | -11 | 0
Cc1c(S(=O)(=O)NCc2ccccc2)c(=O)n(C)c(=O)n1C | 9 | 9 | -15 | · | -2 | -2 | -14 | 0
CCN1C(=O)C2(C(C(=O)c3cc4ccccc4o3)=C(O)C(=O)N2CCCN(C)C)c2ccccc21 (configuration not stated) | 9 | · | · | i | · | · | 0 | -2
Cc1ccc(C)n1C(CC(=O)O)c1ccc(C#N)cc1 (configuration not stated) | 31 | 1 | · | i | 1 | 3 | -9 | 41
CCOc1cc(/C=N/NC(=O)COc2ccccc2C)ccc1OC(=O)c1cccs1 | -2 | -15 | -16 | i | 0 | -1 | -12 | -6
CCOCCCNC(=O)c1cc(-c2cccnc2)nc2ccc(S(=O)(=O)N3CCC(C)CC3)cc12 | -6 | · | 12 | i | -3 | 0 | -4 | -22
CN(Cc1ccc(Cl)cc1)C(=O)CNC(=O)C12CC3CC(CC(C3)C1)C2 | · | 16 | -6 | · | 16 | 4 | -2 | ·
c1cc(CNC2C3CC4CC(C3)CC2C4)ccn1 (configuration not stated) | -3 | -6 | -10 | i | -1 | 5 | 23 | -6
CN(C)C(CNC(=O)c1ccc2ccccc2c1)c1ccco1 (configuration not stated) | -10 | -22 | · | i | -1 | 0 | -13 | -6
CC(c1nnc(SCC(=O)Nc2cccnc2Cl)n1Cc1ccccc1)N(C)C (configuration not stated) | -3 | 12 | · | i | -6 | -7 | -22 | -6

A different layout for four compounds above:
CCCOc1cccc(C(=O)Nc2ccccc2C(=O)N2CCN(C)CC2)c1
- PABP polyA inh = -7
- HIV Env fusion = 0
- UUG fidelity = -11
- Rce1 inh = i
- MT1-MMP act inh = -4
- MT1-MMP act inh RFP = 1
- CSC inhib = -8
- eIF4H FP inh = 9
CN(Cc1ccc(Cl)cc1)C(=O)CNC(=O)C12CC3CC(CC(C3)C1)C2
- PABP polyA inh = ·
- HIV Env fusion = 16
- UUG fidelity = -6
- Rce1 inh = ·
- MT1-MMP act inh = 16
- MT1-MMP act inh RFP = 4
- CSC inhib = -2
- eIF4H FP inh = ·
CCOCCCNC(=O)c1cc(-c2cccnc2)nc2ccc(S(=O)(=O)N3CCC(C)CC3)cc12
- PABP polyA inh = -6
- HIV Env fusion = ·
- UUG fidelity = 12
- Rce1 inh = i
- MT1-MMP act inh = -3
- MT1-MMP act inh RFP = 0
- CSC inhib = -4
- eIF4H FP inh = -22
Cc1c(S(=O)(=O)NCc2ccccc2)c(=O)n(C)c(=O)n1C
- PABP polyA inh = 9
- HIV Env fusion = 9
- UUG fidelity = -15
- Rce1 inh = ·
- MT1-MMP act inh = -2
- MT1-MMP act inh RFP = -2
- CSC inhib = -14
- eIF4H FP inh = 0

Remaining list, next part:
SMILES | PABP polyA inh | HIV Env fusion | UUG fidelity | Rce1 inh | MT1-MMP act inh | MT1-MMP act inh RFP | CSC inhib | eIF4H FP inh
CCN1C(=O)[C@H]2[C@H]3CN=C(SC)N3[C@@](CC)(C(=O)OC)[C@H]2C1=O | · | 3 | -17 | · | 0 | 3 | · | ·
O=C(NCc1ccco1)c1cc([N+](=O)[O-])cc([N+](=O)[O-])c1 | -12 | -9 | · | i | -2 | -4 | 0 | -2
Cc1cc(Br)ccc1NC(=O)c1ccco1 | -3 | -19 | 2 | i | -2 | 1 | 2 | 1
O=c1oc2ccccc2c(N2CCCC2)c1[N+](=O)[O-] | 2 | 15 | -2 | i | 1 | 2 | -1 | -1
Cn1c(CNc2ccc(Br)cc2)nc2ccccc21 | -6 | -105 | · | i | 4 | -2 | -4 | 4
CCC(CC)NC(=O)c1cc(OC)c(OC)c(OC)c1 | -10 | · | -2 | i | 4 | 6 | · | -3
Cn1c(=O)c2c(ncn2CC(=O)NC2CCCCC2)n(C)c1=O | -5 | 10 | -17 | i | 1 | 0 | 2 | 2
COc1cccc2c(=O)n(CC(=O)N3CCCc4ccccc43)ccc12 | -1 | -17 | 6 | i | -3 | 2 | 1 | -6
COc1ccc(-c2ccc(NS(=O)(=O)c3ccc([N+](=O)[O-])cc3)cc2)nn1 | -1 | 2 | 3 | i | 6 | -1 | 3 | -5
C[C@H]([C@@H](N)C(=O)N[C@@H](C(=O)O)[C@@H]1O[C@H](n2ccc(=O)[nH]c2=O)[C@@H](O)[C@H]1O)[C@@H](O)c1ccc(O)cn1 | -4 | · | -2 | i | 2 | 4 | -5 | 46
COc1cc(/C=N/NC(=O)CNC(=O)c2ccncc2)ccc1OC(C)=O | 1 | 0 | 16 | i | -1 | 4 | -7 | -11
Cc1cc(NC(=O)c2ccccc2)n(C)n1 | 6 | 2 | -8 | i | -3 | -1 | -6 | -4
COc1cc(C(=O)NCC(=O)N/N=C/c2ccc(-c3cccc([N+](=O)[O-])c3)o2)cc(OC)c1OC | -17 | 30 | -9 | i | 11 | 3 | 2 | -10
Cc1onc(-c2ccccc2)c1C(=O)NC(=S)Nc1sc2c(c1C#N)CCCC2 | 16 | -37 | · | i | 0 | -1 | 11 | 2
CCOc1ccc(C(C(=O)NCC2CCCO2)N(CCc2cccc(C)c2)C(=O)c2snc(C(N)=O)c2N)cc1 (configuration not stated) | -8 | 4 | 6 | i | -2 | -9 | · | -6
COc1ccc(Nc2cccccc2=O)cc1 | -5 | 0 | -3 | i | -8 | -8 | -5 | 6
Cc1ccc(S(=O)(=O)N(C)C[C@H]2OCc3cn(nn3)CCCC(=O)N([C@H](C)CO)C[C@@H]2C)cc1 | · | 0 | -5&-4 | · | 1 | 4 | · | ·
CCC/C=N/NC(=O)c1ccccc1O | 5 | -8 | · | i | 4 | 5 | -7 | -4
COc1ccc(CCNCC(O)Cn2c3ccccc3c3ccccc32)cc1OC (configuration not stated) | 0 | -23 | · | i | -7 | -12 | -12 | -6
CC(C)Oc1ccc(S(=O)(=O)N2CCCCC2)cc1NC(=O)C1CCCC1 | · | 13 | -5 | · | 2 | -3 | · | ·
O=C(O)C1C(c2ccccc2)c2ccccc2C(O)C1CO (configuration not stated) | · | -11 | -14 | · | -2 | 3 | · | ·
Cc1ccc(-c2nc(CS(=O)(=O)CC(=O)NCCCN(Cc3ccccc3)C(C)C)c(C)o2)cc1 | -9 | -1 | 8 | i | 2 | 0 | 18 | -11
Fc1ccc(/C=N/Nc2nc(-c3cccnc3)nc3ccccc23)cc1 | 0 | -5 | · | i | -2 | -2 | 6 | -14
COc1cc(C2SCC(=O)N2c2nnc(C34CC5CC(CC(C5)C3)C4)s2)cc(OC)c1OC (configuration not stated) | 3 | 31 | -18 | i | 4 | 0 | 54 | -10
O=C1/C(=C\c2ccc(C(F)(F)F)cc2)CSc2sccc21 | 11 | 19 | -20 | i | 0 | -1 | 11 | 1
Cc1ccc(S(=O)(=O)N2CCC(NC(=O)c3cccc(C)c3)CC2)cc1 | -9 | 11 | · | i | 3 | -1 | -15 | 2
O=C(Cc1cccc2ccccc12)NCCC1=CCCCC1 | -8 | 12 | · | i | -1 | 2 | 7 | -6
NS(=O)(=O)c1ccc(N2N=C(c3ccccc3)CC2c2cccc(F)c2)cc1 (configuration not stated) | -4 | · | -5 | i | -11 | -6 | 23 | -10
CCCSc1nnc(-c2cnn(-c3ccccc3)c2-n2cccc2)n1C | 3 | · | 9 | i | 3 | -5 | -10 | -8
NC(=O)c1cc(NC(=O)CCc2nc3ccccc3s2)cc(C(N)=O)c1 | 2 | 8 | -3 | i | 2 | 3 | -11 | -3
O=C(COC(=O)/C=C/c1ccc(S(=O)(=O)N2CCc3ccccc32)cc1)NC1CCS(=O)(=O)C1 (configuration not stated) | 27 | -2 | · | i | 2 | 0 | -5 | -4
Cc1cccc(NC(=O)CCC(=O)OCC(=O)c2ccc(Oc3ccc([N+](=O)[O-])cc3)cc2)c1 | -1 | -25 | · | i | 3 | -1 | -9 | 3
COC(=O)c1ccc(Cn2nc(C)c(Cl)c2C)o1 | 7 | -5 | -11 | i | -2 | 2 | -9 | -8
CCOc1ccc(NC(=O)CN(C)C(=O)c2ccc(COc3ccccc3)cc2)cc1OCC | · | -3 | -23 | · | 5 | -8 | · | ·
COc1ccc(Cn2c(SCC(=O)NCc3ccco3)nc3ccsc3c2=O)cc1 | 0 | ? | -12 | i | 8 | -2 | · | -3
O=C(CC1Sc2ccccc2NC1=O)NNc1cc(Cl)ccc1Cl (configuration not stated) | · | 17 | -11 | · | 2 | 2 | · | ·
N=C1C(c2nc(-c3ccc(F)cc3)cs2)=C(O)CN1Cc1ccc(Cl)cc1 | 0 | i | -16 | i | -5 | -3 | 8 | 8
Cn1ncc(N2CCN(C(=O)c3ccc(Cl)cc3)CC2)c(Cl)c1=O | 12 | -13 | 0 | i | 3 | 4 | 0 | -8
O=C(Nc1cccc(F)c1)c1ccc(-c2ccccc2Cl)o1 | 2 | · | -15 | i | -1 | -6 | 3 | 2
CCN(C[C@H]1N[C@@](Cc2ccccc2)(C(=O)OC)[C@H]2C(=O)N(Cc3ccccc3)C(=O)[C@@H]12)C(C)=O | · | -34 | -2 | · | 2 | 1 | · | ·
COc1ccc(NC(=O)c2cc3c(=O)n4ccccc4nc3n2C)cc1OC | 30 | -11 | -9 | i | -4 | -5 | 8 | -7
Cc1cc(NC(=O)CSc2cn(CC(=O)N(C(C)C)C(C)C)c3ccccc23)no1 | · | 1 | -1 | i | 0 | 0 | 2 | ·
Cc1cccc(NC(=S)NCc2ccc(F)cc2)c1C | -9 | -9 | -17 | i | -2 | -5 | -17 | -14
O=C(Nc1cc(Cl)ccc1Cl)c1cc(-c2ccco2)on1 | -10 | -2 | -9 | i | 0 | 6 | -5 | -3
C=CCOCC(O)Cn1c(N2CCCC2)nc2c1c(=O)[nH]c(=O)n2C (configuration not stated) | -3 | 8 | -21 | i | 2 | 1 | -12 | -11
